Marburg entry inh – Marburg virus entry inhibition | Potency, µM (series often up to 37.8 µM), for inactives: top-dose activity change, negative = inhibition, actives largely listed as inhibitors | hit rate 1.8% among 300,000 | Marburg virus pseudotyped entry inhibition, cell reporter; control for the full effect not named in the record; about a third of the inactives were read at about 46 µM | AID 540276; active = well fitted inhibition curve with a large enough effect; inconclusive = small, poorly fitted or top-dose-only effect, or effect the other way; inactive = flat fitted curve, though single readings scatter; tested in HEK293 cells; about a fifth of its hits are not listed in these tables; also: % is scaled to controls: 0 for no effect and ±100 for the full control effect; luciferase read-out
Cruzain inh noDet – blocks cruzain activity in detergent-free assay; purified cruzain, Z-FR-AMC fluorescence, no detergent; Potency, µM, for the others: max response, negative = inhibition, most hits filed as inhibitors; hit rate 2.3% among 200,000;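 also: plate controls were enzyme without inhibitor for no effect and buffer without enzyme for full effect; nearly all actives have a fitted effect of over 40% in size; top concentration of the series not given in the record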
Target sequence (P25779 123-467 limits assumed): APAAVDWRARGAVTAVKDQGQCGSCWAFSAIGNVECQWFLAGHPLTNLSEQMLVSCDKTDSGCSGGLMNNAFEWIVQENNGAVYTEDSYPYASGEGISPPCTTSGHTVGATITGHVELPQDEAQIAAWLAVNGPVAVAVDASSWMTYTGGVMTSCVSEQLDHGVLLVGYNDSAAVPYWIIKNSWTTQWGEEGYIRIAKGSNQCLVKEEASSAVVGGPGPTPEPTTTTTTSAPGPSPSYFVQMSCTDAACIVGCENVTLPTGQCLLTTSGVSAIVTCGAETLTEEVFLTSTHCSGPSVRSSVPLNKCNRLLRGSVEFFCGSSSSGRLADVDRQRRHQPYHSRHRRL
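Detergent-free condition (0.00005% Triton X-100) in acetate buffer pH 5.5 with DTT. 1.5 nM enzyme and compound were pre-mixed 15 min, then 2 uM Z-FR-AMC substrate added; reaction progress from fluorescence change between first and third reads (60 s).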
RE007 growth inh – less growth of the S. pombe RE007 Vpr strain; S. pombe RE007 Vpr strain, BacTiter-Glo ATP luminescence, 24 h; control for the full effect not named in the record; Potency, µM (titrated, usually from 92.2 µM), inactives show top-dose activity change, negative = less growth; hit rate 0.21% among 360,000; AID 651644; active = well fitted falling curve with a large enough effect; inconclusive = small, poorly fitted or top-dose-only effect; inactive = no such curve, though single readings can be large or run the other way;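 also: % is scaled to controls: 0 for no effect and ±100 for the full control effect; nearly all actives have a fitted effect of over 50% in size; the assay follows cell death caused by Vpr and the record does not say whether a fall means rescue or toxicity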
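Fission yeast strain RE007, carrying one chromosomally integrated HIV-1 vpr copy, was seeded at OD 0.01 in PMG+AL medium with 23 nL pinned compound. After 24 h at 30 °C and 99% humidity, viability was read by BacTiter-Glo luminescence.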
SARS PLP yeast – blocks SARS-CoV papain-like protease in a yeast assay; Potency, µM (highest dose often 32.9 µM), without a hit: top-dose activity, positive = growth rescue; S. cerevisiae expressing SARS-CoV PLpro, growth rescue; control for the full effect not named in the record; hit rate 0.19% among 330,000; active means well fitted rising curve with a large enough effect; inconclusive means small, poorly fitted or top-dose-only effect; inactive means no such curve, though single readings can be large or run the other way; also: 0% is about no effect; nearly all actives have a fitted effect of over 55% in size; growth read by luminescence after 48 h
2A StopGo – FMDV 2A StopGo reporter, luciferase signal | human cells with a luciferase reporter of 2A StopGo recoding; control for the full effect not named in the record | Potency, µM (titrated, usually from 57.9 µM), without a hit: at the top dose signal change, negative = less light | hit rate 1.2% among 410,000; active = well fitted falling curve with a large enough effect; inconclusive = small, poorly fitted or top-dose-only effect; inactive = no such curve, though single readings can be large or run the other way; tested in HEK293T cells; also: % is scaled to controls: 0 for no effect and ±100 for the full control effect; nearly all actives have a fitted effect of over 45% in size; luciferase light after 4 h
Cruzain Triton – cruzain (T. cruzi) inhibition with detergent; hit rate 0.43% among 200,000; AID 1478; P25779; purified cruzain, Z-FR-AMC fluorescence, 0.01% Triton; Potency, µM, for inactives: max response, negative = inhibition, most hits filed as inhibitors;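 also: plate controls were neutral wells for no effect and buffer without enzyme for full effect; nearly all actives have a fitted effect of over 40% in size; top concentration of the series not given in the record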
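Cruzain (1.5 nM) preincubated 15 min at RT with compound in 100 mM sodium acetate pH 5.5, 5 mM DTT, 0.01% Triton X-100. Reaction started with 2 uM Z-FR-AMC; AMC fluorescence (ex 360/em 450 nm) change over 60 s gave rate.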
Lassa entry inh – Lassa virus entry inhibition. Potency, µM (titrated, usually from 37.9 µM), for the others: at the highest dose activity change, negative = inhibition, most hits filed as inhibitors. Lassa virus pseudotype entry inhibition, cell reporter; control for the full effect not named in the record. hit rate 1.2% among 300,000; active means well fitted inhibition curve with a large enough effect; inconclusive means small, poorly fitted or top-dose-only effect, or effect the other way; inactive means flat fitted curve, though single readings scatter; tested in HEK293 cells; also: % is scaled to controls: 0 for no effect and ±100 for the full control effect; nearly all actives have a fitted effect of over 50% in size; luciferase read-out
NS1 function inh – inhibitors of influenza NS1 protein function | S. cerevisiae slowed by influenza A NS1, growth recovery by OD600 | Potency, µM (titrated, usually from 46.1 µM), for inactives: at the top dose activity, positive = more growth | hit rate 0.4% among 270,000 | AID 2326; active means well fitted rising curve with a large enough effect; inconclusive means small, poorly fitted or top-dose-only effect; inactive means no such curve, though single readings can be large or run the other way; also: nearly all actives have a fitted effect of over 50% in size
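Growth recovery, yeast-based: influenza A NS1 expressed in S. cerevisiae causes slow growth, and suppressors are detected by OD600. The parent strain without NS1 is used as positive control.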
Starred values were filed as active, the others as inactive; ? = inconclusive; · = not tested or not shown; [ ] = remark or other dose. Unless noted, calls follow the shape of the dose curve; as a rule, active = well fitted curve in the direction sought with a large enough effect; inconclusive = small, poorly fitted or top-dose-only effect, or another doubt; inactive = no such curve, though single readings can be large; an effect the other way counts as inactive or inconclusive. Potency is read from the fitted curve at half-maximal effect.

SMILES	Marburg entry inh	Cruzain inh noDet	RE007 growth inh	SARS PLP yeast	2A StopGo	Cruzain Triton	Lassa entry inh	NS1 function inh
COc1ccc(S(=O)(=O)N2CN(Cc3ccco3)c3nc4ccccc4nc32)cc1	1%	-17%	7%	-2%	3%	-5.2%	-12%	?
O=C(CSc1nnc(-c2ccccc2)n1-c1ccc(Cl)cc1)NC1CCS(=O)(=O)C1 (stereo not given)	?	29%	1%	-28%	-2%	2.6%	2%	-16%
CC(=O)Oc1ccc(OC(C)=O)c(SCCCCCCl)c1	?	·	-23%	-6%	?	·	?	·
Cc1ccnc(NC(=O)c2ccc(NC(=O)c3ccco3)cc2)c1	-20%	-10%	-9%	-7%	12%	1.3%	-20%	-5%
O=C(CN1C(=O)CSc2ccccc21)Nc1ccccc1C(=O)N1CCOCC1	-3%	-1%	4%	-4%	8%	-1.3%	-3%	?
O=[N+]([O-])c1ccc(COn2nnc3ccccc32)cc1	-2%[46.1 µM]	·	9%	1%	6%	·	-4%[46.1 µM]	·
CCOc1ccc(CCNC(=O)C2CCCN(C(=O)N(C)C)C2)cc1OCC (stereo not given)	28%	6%	8%	-2%	·	2.6%	-20%	-4%
Cn1c(=O)c2c(nc(OCc3ccccc3)n2C)n(C)c1=O	·	2%	-2%	1%	-27%	-1.2%	·	-5%
CC(=O)NC(C(=O)NCC(N)=O)C(C)C (stereo not given)	27%	7%	-4%	1%	-20%	2.2%	2%	10%
CCOC(=O)N1CCN(c2c(-c3ccc(C)cc3)c(=O)c2=O)CC1	-14%	-1%	1%	4%	2%	-3.9%	-9%	-33%
CCOc1ccc(N(CC(=O)N2CCCC2)S(=O)(=O)c2ccc(F)cc2)cc1	-7%	·	-15%	?	-10%	·	7%	13%
O=C(/C=C/c1ccc2c(c1)OCO2)NCCS(=O)(=O)N1CCN(c2ccc(F)cc2)CC1	?	·	-16%	7%	-9%	·	?	·
CCc1cc2c(cc3c(=O)n(CC(=O)NCc4cc(Br)ccc4OC)ncn32)s1	10%[46.1 µM]	24%	·	·	-4%	5.4%	·	·
CSc1cccc(NC(=S)N2CCC(N(C)C3CCCCCC3)CC2)c1	?	·	-5%	-1%	0%	·	-13%	·
COc1ccccc1N1CCN(C(=O)CN(Cc2ccccc2)S(C)(=O)=O)CC1	-4%	?	13%	-3%	?	6.1%	?	-8%
CN(C)CCCNCC(=O)NN(c1ccccc1)c1ccccc1	-23%[46.1 µM]	·	1%	0%	-11%	·	2%	3%
CC(NC(=O)C(=O)N1CCOCC1)C(c1cccs1)N1CCN(c2ccc(F)cc2)CC1 (stereo not given)	·	·	-6%	0%	0%	·	·	-7%
Cc1ccc(C(=O)COC(=O)COc2ccc(C)c(C)c2)cc1	·	·	-2%	21%	1%	·	·	10%
COCCN(C(=O)CNC(=O)c1ccco1)C(C(=O)NC1CCCC1)c1cccs1 (stereo not given)	0%[46.1 µM]	-10%	-9%	-2%	-4%	0.6%	6%	-1%
COc1ccc(-c2nnc(-c3cc4c(ccc5ccccc54)oc3=O)o2)cc1	10%	5%	2%	-1%	1%	-0.5%	-4%	-4%
CNC(=O)c1ccc2c(c1)N(Cc1ccccc1Cl)C(=O)c1ccccc1S2	·	-3%	·	·	-16%	-1.9%	1%[46.1 µM]	·
CCOc1ccc(NC(=S)N(CCc2c(C)[nH]c3ccccc23)Cc2ccco2)cc1	0%	?	-4%	-10%	-17%	-2.0%	2%	18%
Cc1ccc(CSc2nc3ccc(NC(=O)COc4ccc(F)cc4)cc3s2)cc1	?	1%	·	·	-13%	-2.4%	-5%[46.1 µM]	·
CC(=O)c1cc(CN2CCC(C(=O)Nc3cccc(-c4cscn4)c3)CC2)cs1	?	·	3%	-3%	20µM*	·	?	5%
CC(NC(=O)c1ccc([N+](=O)[O-])cc1Cl)C1CC2CCC1C2 (stereo not given)	9%[46.1 µM]	·	19%	-2%	4%	·	-7%	1%

2 compounds drawn at random from the list so far:
SMILES	Marburg entry inh	Cruzain inh noDet	RE007 growth inh	SARS PLP yeast	2A StopGo	Cruzain Triton	Lassa entry inh	NS1 function inh
Cc1ccnc(NC(=O)c2ccc(NC(=O)c3ccco3)cc2)c1	-20%	-10%	-9%	-7%	12%	1.3%	-20%	-5%
CN(C)CCCNCC(=O)NN(c1ccccc1)c1ccccc1	-23%[46.1 µM]	·	1%	0%	-11%	·	2%	3%

Back to the main list, repeating the 7 entries before the break.
SMILES	Marburg entry inh	Cruzain inh noDet	RE007 growth inh	SARS PLP yeast	2A StopGo	Cruzain Triton	Lassa entry inh	NS1 function inh
COCCN(C(=O)CNC(=O)c1ccco1)C(C(=O)NC1CCCC1)c1cccs1 (stereo not given)	0%[46.1 µM]	-10%	-9%	-2%	-4%	0.6%	6%	-1%
COc1ccc(-c2nnc(-c3cc4c(ccc5ccccc54)oc3=O)o2)cc1	10%	5%	2%	-1%	1%	-0.5%	-4%	-4%
CNC(=O)c1ccc2c(c1)N(Cc1ccccc1Cl)C(=O)c1ccccc1S2	·	-3%	·	·	-16%	-1.9%	1%[46.1 µM]	·
CCOc1ccc(NC(=S)N(CCc2c(C)[nH]c3ccccc23)Cc2ccco2)cc1	0%	?	-4%	-10%	-17%	-2.0%	2%	18%
Cc1ccc(CSc2nc3ccc(NC(=O)COc4ccc(F)cc4)cc3s2)cc1	?	1%	·	·	-13%	-2.4%	-5%[46.1 µM]	·
CC(=O)c1cc(CN2CCC(C(=O)Nc3cccc(-c4cscn4)c3)CC2)cs1	?	·	3%	-3%	20µM*	·	?	5%
CC(NC(=O)c1ccc([N+](=O)[O-])cc1Cl)C1CC2CCC1C2 (stereo not given)	9%[46.1 µM]	·	19%	-2%	4%	·	-7%	1%
Cc1ccc(CNC(=O)CCN2C(=O)[C@@H]3Cc4ccccc4CN3C2=O)cc1	·	·	-7%	1%	-2%	·	·	-1%
O=C(CN(c1ccc(F)cc1)S(=O)(=O)c1ccccc1)NCc1ccco1	-22%	5%	-15%	7%	-13%	9.3%	-12%	-1%
Cc1cccc(NC(=S)NCCc2ccccc2)c1C	?	·	-4%	-7%	24%	·	-2%	-104%
COc1ccc(Cn2c(CCC(=O)NCc3ccc(Cl)cc3)nc3cccnc32)cc1	6%[46.1 µM]	34%	·	·	3%	-1.7%	5%[46.1 µM]	·
Cc1cccc(NC(=O)CN(c2ccc(C(C)C)cc2)S(=O)(=O)c2c(C)nn(C)c2C)c1C	17%[46.1 µM]	-28%	·	·	-20%	-2.8%	12%[46.1 µM]	·
Cc1ccc2nc(NC(=O)C3CCN(S(=O)(=O)c4cnc[nH]4)CC3)sc2c1	?	5%	1%	?	?	-5.2%	?	-11%
CCc1ccc(OCc2cc(=O)n3c4c(sc3n2)CCCC4)cc1	-8%[46.1 µM]	-5%	·	·	49%[activator]	-0.5%	12%[46.1 µM]	·
COc1ccc(CNC(=O)C(NC(C)=O)C(=O)Nc2ccc(C(C)C)cc2)cc1 (stereo not given)	-9%[46.1 µM]	·	3%	2%	-11%	·	?	·
CCOc1ccc(C(C)NC(=O)c2cccnc2OCC)cc1OCC (stereo not given)	-1%[46.1 µM]	·	4%	-3%	0%	·	5%[46.1 µM]	·
CCOc1cc(NC(=S)NCCCN2CCOCC2)c(OCC)cc1NC(=O)C1CC1	9%	-11%	18%	11%	3%	-3.0%	11%	0%
Cc1ccc(CNC(=O)CCCn2c(=O)[nH]c3ccc(Br)cc3c2=O)cc1	12%[46.1 µM]	1%	·	·	-19%	-0.3%	3%[46.1 µM]	·
O=C(NC(=S)Nc1ccccc1)c1cc([N+](=O)[O-])ccc1N1CCOCC1	-5%	·	5%	0%	-7%	·	1%	9%
CCOC(=O)C1CCC(CN(Cc2ccc(OC)cc2)S(=O)(=O)c2ccc(F)c(C(=O)Nc3cc(C)ccc3C)c2)CC1 (stereo not given)	·	7%	·	·	0%	1.0%	-14%[46.1 µM]	·
CC1=Nn2c(nnc2C2CCCCC2)SC1	?	8%	2%	-5%	27%	1.7%	21%	?
O=C(COc1ccc(Cl)cc1)NCc1n[nH]c(=O)c2ccccc12	-28%	·	-3%	0%	-25%	·	8%	·
O=C(COC(=O)Cc1ccccc1)NC(=O)NC1CCCCC1	0%	·	9%	1%	-6%	·	-8%[46.1 µM]	·
Cc1ccc(C)c(N2CCN(C(=O)c3cc4ccc5cccnc5c4[nH]3)CC2)c1	·	-26%	·	·	-1%	-6.8%	?	·
OCCC1CN(Cc2nc(-c3ccccc3)cs2)CCN1Cc1ccc(F)cc1 (stereo not given)	?	·	1%	0%	?	·	-20%	2%
Cn1c(CNC(=O)CSc2nc(-c3ccccc3F)nc3cc(=O)[nH]n23)nc2ccccc21	·	7%	·	·	-15%	1.5%	10%[46.1 µM]	·
c1ccc2c(CSCCc3ccncc3)cccc2c1	4%	-6%	-14%	-20%	-17%	-0.6%	0%	-51%
O=C(NCCOc1ccc(F)cc1)C1CCC(=O)N(CCCN2CCOCC2)C1 (stereo not given)	·	·	13%	-1%	7%	·	·	-3%
CC(=O)N1c2ccccc2CC1C(=O)N1CCN(c2ccc(F)cc2)CC1 (stereo not given)	·	14%	·	·	-7%	2.1%	-15%[46.1 µM]	·
COc1cc(C2CC(=O)Oc3ccc(C(C)(C)C)cc32)cc(OC)c1OC (stereo not given)	·	?	4%	12%	-21%	-1.8%	·	·
Cn1c(=O)c2c(c3ccccc31)OC(=O)CC2c1ccccc1 (stereo not given)	·	-1%	·	·	-19%	1.4%	5%[46.1 µM]	·
CN1CCN(c2nc(-c3cccnc3)nc3scc(-c4ccccc4)c23)CC1	?	·	-8%	0%	-1%	·	2%	·
Cc1ccccc1Cn1nnc2c(=O)[nH]c(C3CCCN(C(=O)c4ccc(F)cc4)C3)nc21 (stereo not given)	-14%[46.1 µM]	?	·	·	-19%	0.0%	?	·
CCCCS(=O)(=O)C(=C1Nc2ccccc2N1)S(=O)(=O)CCCC	-4%	-10%	6%	7%	3%	3.1%	15%	-1%
O=C1CCC(=O)N1c1ccc(S(=O)(=O)Nc2ccc(Br)cc2)cc1	-11%[46.1 µM]	·	-2%	10%	0%	·	-2%	-5%
O=c1c2ccccc2c(-c2ccccc2)nn1-c1ccccn1	-7%[46.1 µM]	·	-11%	0%	-27%	·	4%[46.1 µM]	·
